# High-throughput results as filed in PubChem.
# Sa growth inh: blocks Staphylococcus aureus growth; AID 720641; S. aureus RN4220 growth, OD600, 20 h, 42 °C; stronger effect = lower value; relative growth, % (test concentration not listed); 0.53% of 170,000 active;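 active means growth at 42 °C up to 50% and 20 or more points under that at 30 °C, or under 10% at both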;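 further: 300 nL library stock went into each well; scaled to the means of positive and negative controls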
# HCMV UL50-53 inh: inhibitors of HCMV UL50-UL53 nuclear egress complex interaction. HTRF UL50-UL53 interaction, normalized percent inhibition. AID 1918969. inhibition, % (no concentration beside the values). 0.15% of 190,000 active;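 active means both replicates at 50% or more, plus weaker picks with an unusually low signal ratio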;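 further: stock transfer was 100 nL into about 20 µL; 0% = negative control wells and 100% = wells with untagged competitor protein; inactives centre near -12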
# GIV-Gai inh: inhibitors of GIV GBA-motif binding to rat Galpha-i3; P08753; Galpha-i3/FITC-GIV peptide fluorescence polarization, 90 min; stronger effect = lower value; scaled: aluminum fluoride 0%, vehicle 100%; percent of control (FP), % (concentration not given with the values); 0.42% of 210,000 active; AID 1224905;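 active means replicate mean at 85% of control or lower, very high polarization wells dropped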;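 further: wells of about 15 µL received 100 nL stock; the first replicate is given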
# Target sequence (P08753 whole entry, looked up): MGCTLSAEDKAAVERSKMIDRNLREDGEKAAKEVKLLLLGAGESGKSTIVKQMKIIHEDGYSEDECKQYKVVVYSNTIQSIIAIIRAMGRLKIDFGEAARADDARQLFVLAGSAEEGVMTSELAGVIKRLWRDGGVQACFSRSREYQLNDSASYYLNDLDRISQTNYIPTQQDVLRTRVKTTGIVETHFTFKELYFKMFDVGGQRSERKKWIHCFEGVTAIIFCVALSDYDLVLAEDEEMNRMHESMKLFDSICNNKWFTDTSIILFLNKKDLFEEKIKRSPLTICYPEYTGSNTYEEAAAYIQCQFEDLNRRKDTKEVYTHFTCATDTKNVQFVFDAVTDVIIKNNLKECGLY
# Sa growth inh second temp: recorded beside Sa growth inh, whose call it bears; relative growth, %; measured here: growth at 30 °C;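 optical density after 20 h as mean of two plates; 100% = untreated growth and lower means inhibition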
# * hit, by the source's call; . = no result given; & = joins results of further samples.
SMILES,Sa growth inh,Sa growth inh second temp,HCMV UL50-53 inh,GIV-Gai inh
COc1cc(NC(=O)CSc2nc(-c3ccco3)cc(C(F)(F)F)n2)cc(OC)c1OC,95,91,-12,103
COc1ccccc1C(=O)N1CCC(c2c[nH]c3ccccc23)(c2c[nH]c3ccccc23)CC1,106,56,2,115
CC(NC(=O)c1ccc(S(=O)(=O)N2CCCCC2)cc1)C(c1ccccc1)N1CCOCC1 (stereo unspecified),88,89,-26,.
C#CCSc1nc(=O)n2ccccc2n1,98,82,-24,102
COc1ccc(CNC(=O)c2cn(C)c(=O)c3ccccc23)cc1,89,91,.,103
CCCc1nc(NC(C)=O)c(C#N)c(-c2ccccc2OC)c1CC,103,89,4,107
O=C(O)CCN1C(=O)c2cc(Cl)c(Cl)cc2C1=O,104,86,.,105
COc1cccc(/C=C/c2nc(C#N)c(N(C)Cc3ccccc3)o2)c1,112,93,-17,106
CCC1Oc2cc(S(=O)(=O)N3CCCC(C(=O)N(C)C4CCCCC4)C3)c(C)cc2NC1=O (stereo unspecified),.,.,-18,102
Cc1cc(=O)[nH]c(SC(C(=O)O)c2ccccc2)n1 (stereo unspecified),91,83,-6,106
Cc1cc(/C=C/C(=O)N2CCCC2c2cccs2)c(C)n1Cc1ccco1 (stereo unspecified),90,75,3,.
O=C(C1CCN(c2nccc(C(F)(F)F)n2)CC1)N1CCSCC1,107,86,.,102
COc1ccc(C2(C(=O)NCc3nnc(SC)n3C(C)C)CC2)cc1,111,90,-3,101
Fc1cccc(Cl)c1CSc1nnc(-n2cccc2)s1,121,84,-9,100
COC(=O)CNc1cc(C)c(C(O)(C(F)(F)F)C(F)(F)F)cc1OC,107,87,-1,.
CCSc1nn(CC(=O)Nc2ccccc2Cl)c(N)c1S(=O)(=O)c1ccc(OC)cc1,.,.,-9,103
Cc1ccc(/C=C/C(=O)Nc2ccc3nc(N4CCC(C)CC4)cc(C)c3c2)cc1,108,95,4,97
CCCCNC(=O)c1cn(CC(C)C)c(=O)c2cc(OC)c(OC)cc12,97,98,14,101
O=C(Cn1cnc2c(oc3ccccc32)c1=O)N1CCCc2ccccc21,67,70,.,98
Cc1ccn2cc(C(=O)OCCOc3ccccc3Cl)nc2c1,94,94,0,.
CC(C)c1n[nH]c(=S)n1N,79,90,-8,.
COc1cccc(N2CC(NC(=O)Cc3cccs3)CC2=O)c1 (stereo unspecified),117,84,.,98
CCOC(=O)CSc1nc(NC#N)nc(N(CC)CC)n1,109,82,.,101
CNC(=O)c1ccc2c(c1)c(C)c(C)n2C,.,.,2,114
CCOC(=O)c1c(C)nn(-c2ncccc2NC(=O)NC(C)C)c1C,94,89,-30,100
O=c1c2ccccc2ncn1CN1CCN(Cc2ccccc2)CC1,86,89,-37,.
CCCNC(=O)CCCN1C(=O)CCn2nc(C)cc21,.,.,-6,107
Cc1ccccc1S(=O)(=O)N1CCc2c([nH]c3ccccc23)C1c1ccc(Cl)cc1 (stereo unspecified),.,.,-29,104
CC1(C)C(=O)N(CC(=O)N2CCN(c3ccc(F)cc3)CC2)c2ccccc21,.,.,-21,100
COc1cc2c(cc1OC)CN(c1ccc3ccccc3n1)CC2,34,3,-26,.
CN1C(=O)Cc2cc(S(=O)(=O)N3CCN(c4nc5ccccc5n5cccc45)CC3)ccc21,.,.,4,108
CCCCCc1ccc(-c2ccc(C#N)cc2)nc1,82,74,-5,104
CCCN1CCN(c2nnc(-n3cccc3CN3CCN(c4ccccc4)CC3)s2)CC1,.,.,-5,104
O=C1CC(c2ccccc2)Oc2cc(Cl)ccc21 (stereo unspecified),99,90,39,94
O=C(CCn1ccc2cc(S(=O)(=O)N3CCCCC3)ccc21)NCc1cccnc1,.,.,-4,98
CCOC(=O)C1=C(O)/C(=C/c2ccc(C)o2)SC1=NC(=O)c1ccccc1,109,71,-11,164
CC(C)(C)NC(=O)CCc1ncc(C(F)(F)F)cc1Cl,.,.,14,103
COc1ccccc1-c1csc(-c2nnn(-c3ccc(F)cc3)c2N)n1,.,.,-6,112
CC1(C)CC2(CCCN(CCCN3CCCC4(CCOC(C)(C)C4)C3)C2)CCO1 (stereo unspecified),94,98,7,.
CN(C)c1ccc(/C=N/n2cnnc2)cc1,89,81,-80,98
C=CCc1c(C)nc(-c2ccccc2)[nH]c1=O,101,94,1,.
O=c1ccc(C(F)(F)F)cn1Cc1cc(=O)n2ccsc2n1,107,95,-22,.
CCn1c(=O)c2c3c(sc2n2c(SCc4ccc(OC)cc4)nnc12)CCCC3,93,89,.,106
CCCC1=NN(c2ccc(C(=O)OCC)cc2)C(=O)C1,35,30,3,112
CCC(=O)N1N=C(c2c(-c3ccccc3)c3cc(Br)ccc3[nH]c2=O)CC1c1cccc([N+](=O)[O-])c1 (stereo unspecified),.,.,-8,101
CC(C)c1cccc(C(C)C)c1NC(=O)/C=C/c1ccco1,83,77,-21,.
CCOC(=O)C1(C#N)C(N)=C(C#N)C(c2ccccc2)=CC1c1ccccc1 (stereo unspecified),50,58,-23,.
Cn1c(C/C(N)=N/O)nc2ccccc21,87,90,-10,.
Cc1cc(Nc2ccc(F)cc2)n2c(nc3ccccc32)c1C#N,114,89,-42,100
COc1ccc(C)cc1NC(=O)c1cc(S(=O)(=O)N2CCc3ccccc3C2)ccc1F,97,90,.,105

# Carrying on:
SMILES,Sa growth inh,Sa growth inh second temp,HCMV UL50-53 inh,GIV-Gai inh
Cc1nn(-c2ccccc2)c(C)c1NC(=O)CN1CCCCC1C (stereo unspecified),89,94,-17,.
Cc1ccc(S(=O)(=O)NC2=NCN(CCCN3CCOCC3)CN2)cc1,94,82,-33&-31,103&104
OC1(c2ccc(Cl)cc2)CCN(Cc2c[nH]c3ccccc23)CC1,.,.,-12,103
O=C(NC1CCCC1)N1CC2CCCN2c2ccccc21 (stereo unspecified),.,.,-8,106
CCOc1ccc(C(=O)c2cn(CC(=O)Nc3cccc(OC)c3)c3cc4c(cc3c2=O)OCCO4)cc1,93,84,24,106
CCOC(=O)N1CCCN=C1NNc1cc(F)ccc1F,94,96,-25,104
Cc1sc2nc(C(C)C)oc(=O)c2c1C,.,.,1,111
Cc1ccc(Nc2nc(-c3ccc(S(=O)(=O)N4CCCC4)cc3)cs2)cc1,90,99,-6,.
N#CC1CCCc2c1[nH]c1ccc(Br)cc21 (stereo unspecified),33,22,-21,107
CC(CNC(=O)c1cc2ccccn2n1)c1ccccc1 (stereo unspecified),93,87,.,99
CCCSc1nnc2n1CCN2c1ccccc1,.,.,16,108
CN(C)CCOC(=O)c1ccco1,116,90,-5,103
O=C(O)CCC(=O)N1c2ccccc2NC2=C(C(=O)CC(c3ccccc3)C2)C1c1cccnc1 (stereo unspecified),.,.,-15,100
CCCCOc1ccc(NC(=O)c2cc(=O)c3cc(CC)ccc3o2)c2cccnc12,.,.,-12,101
O=C(Nc1c(C(=O)N(Cc2ccco2)CC2CCCO2)oc2ccccc12)C1CCCC1 (stereo unspecified),95,78,-11,101
Cc1cccc(-c2csc(-c3nc(-c4cccc(F)c4)no3)c2-n2cccc2)c1,.,.,-7,98
Cc1ccc(-c2n[nH]c(=O)c3ccccc23)cc1S(=O)(=O)N1CCN(CCO)CC1,85,91,-10,105
O=C(CCN1N=C(c2ccccc2)CCC1=O)NCCc1ccc(Cl)cc1,90,100,.,102
Cc1ccc(S(=O)(=O)N(CCC(C)C)c2nc3nc(C)cc(C)n3n2)cc1,.,.,-21,102
CCC(=O)Nc1ccc2c(c1)nc1n2CCN(Cc2ccccc2)C1,84,81,.,108
Cc1ccc(-c2cn3c(n2)sc2cc(C(=O)NCc4cccs4)ccc23)c(C)c1,94,83,.,110
COC(=O)c1cc2c(ccn2-c2ccc(F)cc2)n1Cc1ccccc1,89,105,7,102
COc1ccc2nc(SCC(=O)Nc3ccc(Br)cc3)[nH]c2c1,.,.,7,104
CCCc1nc2nc3c(cn2n1)C(=O)CC(C)C3 (stereo unspecified),.,.,-2,106
Cc1ccc(-c2nc(C#N)c(N3CCC(C(N)=O)CC3)o2)cc1,102,83,-12,.
COC(=O)C1=CN(CC2CCCO2)C=C(C(=O)OC)C1c1ccc(OCc2ccccc2)c(OC)c1 (stereo unspecified),.,.,4,102
C/C(N)=C(/C#N)C(=O)CN1C(=O)NC(C)(c2ccc3c(c2)OCO3)C1=O (stereo unspecified),88,96,-7,.
O=C(O)c1cc2c([nH]c1=O)CCC2,71,108,.,100
C=CCN(CC=C)S(=O)(=O)c1cc(Cl)ccc1Cl,86,90,-23,104
CCC(=O)Nc1nnc(SCC(=O)N2CCCc3ccccc32)s1,101,96,14,107

# 7 entries from above, with tabs.
Structure	Sa growth inh	Sa growth inh second temp	HCMV UL50-53 inh	GIV-Gai inh
COC(=O)c1cc2c(ccn2-c2ccc(F)cc2)n1Cc1ccccc1	89	105	7	102
COc1ccc2nc(SCC(=O)Nc3ccc(Br)cc3)[nH]c2c1	.	.	7	104
CCCc1nc2nc3c(cn2n1)C(=O)CC(C)C3 (stereo unspecified)	.	.	-2	106
Cc1ccc(-c2nc(C#N)c(N3CCC(C(N)=O)CC3)o2)cc1	102	83	-12	.
COC(=O)C1=CN(CC2CCCO2)C=C(C(=O)OC)C1c1ccc(OCc2ccccc2)c(OC)c1 (stereo unspecified)	.	.	4	102
C/C(N)=C(/C#N)C(=O)CN1C(=O)NC(C)(c2ccc3c(c2)OCO3)C1=O (stereo unspecified)	88	96	-7	.
O=C(O)c1cc2c([nH]c1=O)CCC2	71	108	.	100

# More compounds:
SMILES,Sa growth inh,Sa growth inh second temp,HCMV UL50-53 inh,GIV-Gai inh
C/C=C/C(=O)Nc1ccc(OC)cc1,80,73,-12,101
O=C(O)CSc1n[nH]c(-c2ccc(Cl)cc2)n1,113,86,-228,90
COC(=O)c1sc(C)cc1OC(=O)c1ccc(OC)cc1,102,91,-16,.
O=C(Nc1ccc(Br)cc1F)c1cc2ccccn2n1,.,.,-9,104
CCc1ccc(-c2cc(C(=O)N3CCN(C(=O)c4nsc5ccc(C)cc45)CC3)[nH]n2)cc1,.,.,2,108
O=C(OC1CSc2nc3ccccc3n2C1)c1ccccc1Cl (stereo unspecified),82,114,-2,110
CC(C)(C)/C=N/NS(=O)(=O)c1ccc(Cl)s1,96,94,-11,103
O=C(O)CN1C(=O)/C(=C\c2cc([N+](=O)[O-])cc(Br)c2O)SC1=S,.,.,-78,-59*
COc1ccccc1CCNC(=O)C1CCN(c2nc3ccccc3nc2C(F)(F)F)CC1,119,99,.,102
COc1ccc(-c2c(C)nn3c(C(F)(F)F)cc(C)nc23)cc1OC,97,94,.,99

# A run of entries from further up, as a working copy:
SMILES,Sa growth inh,Sa growth inh second temp,HCMV UL50-53 inh,GIV-Gai inh
COc1ccccc1CCNC(=O)C1CCN(c2nc3ccccc3nc2C(F)(F)F)CC1,119,99,.,102
COc1ccc(-c2c(C)nn3c(C(F)(F)F)cc(C)nc23)cc1OC,97,94,.,99

# Other results follow:
SMILES,Sa growth inh,Sa growth inh second temp,HCMV UL50-53 inh,GIV-Gai inh
O=C(O)c1ccccc1-c1ccc(-c2cc(C(=O)O)c3cc(F)ccc3n2)o1,106,96,-63,99
Cc1cccc(-c2nc(CCNC(=O)c3ccccc3Br)cs2)c1,103,99,.,108
C=CCOC(=O)C1=C(C)N(C)C(=O)NC1c1cn(-c2ccccc2)nc1-c1ccccc1 (stereo unspecified),.,.,-3,105
CCOC(=O)CCc1c(C)nc2c(-c3ccccc3)c(C)[nH]n2c1=O,93,86,-15,104
CCOc1ccccc1CNS(=O)(=O)c1cc(-c2onc(C)c2C)ccc1OC,116,84,.,103
c1ccc(Nc2nc(N3CCCCC3)nc(N3CCCCC3)n2)cc1,111,107,8,99
COc1cc(C=Nc2ccc(C(=O)c3ccccc3)cc2)cc(OC)c1OC,100,87,-11,.
CCc1cccc(NC(=O)c2cnc(N3CCOCC3)nc2)c1,.,.,-29,105
Clc1ccc(Cn2c(CN3CCCC3)nc3ccccc32)cc1,.,.,-13&-16,99
CCOC(=O)c1ccc(N2C(=O)c3n[nH]c(-c4ccco4)c3C2c2cccc(F)c2)cc1 (stereo unspecified),104,70,-11,104
Clc1ccc(/C=N/n2cnnc2)cc1,95,85,-29,95
CCCCn1c(-c2nnc(CCC)o2)cc2ccccc21,.,.,-16,104
CC(C)NC(=O)Cn1cc2c(n1)CCCC2,98,81,.,104
CCc1nnc(NC(=O)CSc2ccc3nnc(-c4ccc(Cl)cc4)n3n2)s1,.,.,-31,102
CC(c1nc2ccccc2n1C)N1CCCCC1 (stereo unspecified),.,.,-22,99
OC1CCN(Cc2cccc(C(F)(F)F)c2)CC1,88,110,5,110
COc1ccc(C(C)n2c(C)c3c(C)nnc(C)c3c2C)cc1 (stereo unspecified),88,44,.,107
COC(=O)c1cc2oc3ccccc3c2n1CC(=O)Nc1ccc(C(C)C)cc1,87,82,-18,99
CC(=O)NCC(=O)NC1CCC(C)CC1 (stereo unspecified),105,93,4,.
Cc1ccc(NC(=O)C2CCCN2S(=O)(=O)c2ccc3c(c2)CCCC(=O)N3)cc1N(C)C (stereo unspecified),.,.,-8,114
O=C1CC(c2ccccc2)c2cc3c(cc2N1)OCO3 (stereo unspecified),96,79,-5&13,104&99
COc1cc(OCc2ccccc2)ccc1CN1CCN(C)CC1,94,84,-25,101

# An excerpt from above in order of count of non-hydrogen atoms, low to high:
SMILES,Sa growth inh,Sa growth inh second temp,HCMV UL50-53 inh,GIV-Gai inh
OC1CCN(Cc2cccc(C(F)(F)F)c2)CC1,88,110,5,110
O=C1CC(c2ccccc2)c2cc3c(cc2N1)OCO3 (stereo unspecified),96,79,-5&13,104&99
Cc1ccc(NC(=O)C2CCCN2S(=O)(=O)c2ccc3c(c2)CCCC(=O)N3)cc1N(C)C (stereo unspecified),.,.,-8,114
